# High-throughput results from PubChem BioAssay.
# VDR inh: Inhibitors of the vitamin D receptor (VDR): qHTS; Vitamin D3 receptor (Homo sapiens), P11473; VDR-SRC2-3 peptide fluorescence polarization, 2 h; Potency, µM, for the others: max response, negative = inhibition, hits mostly inhibitors; 0.93% of 400,000 active; active means well fitted inhibition curve with a large enough effect; inconclusive means small, poorly fitted or top-dose-only effect, or another doubt; inactive means no such curve, though single readings can be large or run the other way; further: series mostly up to about 120 µM
# Target sequence (P11473 whole entry, looked up): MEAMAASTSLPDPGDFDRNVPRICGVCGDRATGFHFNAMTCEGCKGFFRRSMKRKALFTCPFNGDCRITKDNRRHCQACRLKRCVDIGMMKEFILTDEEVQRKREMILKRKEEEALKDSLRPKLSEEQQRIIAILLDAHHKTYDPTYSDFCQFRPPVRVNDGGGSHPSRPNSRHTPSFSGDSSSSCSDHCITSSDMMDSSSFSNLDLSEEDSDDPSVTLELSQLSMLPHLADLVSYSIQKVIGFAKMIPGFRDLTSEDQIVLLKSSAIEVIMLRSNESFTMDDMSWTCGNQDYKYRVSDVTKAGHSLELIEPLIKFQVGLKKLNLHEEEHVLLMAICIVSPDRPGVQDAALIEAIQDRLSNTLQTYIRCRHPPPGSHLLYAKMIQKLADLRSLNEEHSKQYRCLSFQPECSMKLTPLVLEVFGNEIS
#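 VDR–SRC2-3 interaction, FP format. Cmpds 23 nl via pintool, brief spin, 2 h ambient incubation.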
# Starred values were filed as active, the others as inactive; ? = inconclusive; & = joins results of further samples. On the % scale 0 is the no-effect control and ±100 the full control effect; potency means the concentration at half of the fitted maximal effect.
SMILES,VDR inh
O=C(NCC(c1ccco1)N1CCCC1)c1cccc(NS(=O)(=O)c2ccc(Br)cc2)c1 (configuration not stated),-2%
O=C(NCc1ccccc1)C(=O)NCC1OCCN1C(=O)c1ccc(Cl)cc1 (configuration not stated),2%
COCCOC(=O)c1c(-c2ccccc2)c(-c2ccccc2)nn(C)c1=O,5%
CCn1cc(C(=O)NCc2ccccc2OC)c(=O)c2cc(S(=O)(=O)N3CCCCC3)ccc21,-7%
CN(Cc1cn(C)nc1-c1ccc(Oc2ccccc2)cc1)C1CCOC1 (configuration not stated),0%
Cc1ccc(CN2CCN(Cc3ccco3)CC2)cc1,-3%
CC(C)CN1CCC(Oc2cccc(C(=O)NCCc3ccccc3)c2)CC1,-7%
CCc1ccc(NC(=O)c2sc3ncnc(N(C)C4CCCCC4)c3c2C)cc1,-1%
CC(C)CCNC(=O)CN1C(=O)CSc2ccc(S(=O)(=O)N3CCC(C)CC3)cc21,14%
COc1ccc2nc(SCC(=O)NCc3ccc(OC)c(OC)c3)[nH]c2c1,?
CC1=C(c2ccc(C)c(C)c2)S(=O)(=O)N=C1N1CCC(C(=O)N2CCC(C(N)=O)CC2)CC1,8%
O=C(Nc1cccs1)Nc1c(F)c(F)c(F)c(F)c1F,-7%
CCn1nnnc1SCC(=O)NCc1ccc2c(c1)OCO2,-1%
CC(=O)n1cc([C@@H]2C=C(C(=O)Nc3ccccc3)O[C@H](OCCCCO)C2)c2ccccc21,7%
CC(CCC(=O)O)C1CCC2C3C(=O)C[C@@H]4CC(=O)CC[C@@]4(C)C3CC(=O)[C@]12C (some centres not stated),5%

# 3 entries from above, sorted by their value in VDR inh, smallest number first:
smiles	VDR inh
O=C(Nc1cccs1)Nc1c(F)c(F)c(F)c(F)c1F	-7%
O=C(NCC(c1ccco1)N1CCCC1)c1cccc(NS(=O)(=O)c2ccc(Br)cc2)c1 (configuration not stated)	-2%
CC(=O)n1cc([C@@H]2C=C(C(=O)Nc3ccccc3)O[C@H](OCCCCO)C2)c2ccccc21	7%

# Later entries
SMILES,VDR inh
COC(=O)Cn1ccc(N(C)C)c(C#N)c1=O,8%
CC(C)c1nnc(NC(=O)CSc2nnc(NC(=O)c3c(F)cccc3F)s2)s1,1%
COC(=O)c1ccc(NC(=O)COc2cccc(-n3cnnn3)c2)cc1,9%
Cc1cccc(-c2nc(CS(=O)CC(=O)NCc3ccco3)c(C)o2)c1 (configuration not stated),-27%
COc1ccccc1CNC(=O)COC(=O)[C@H](Cc1c[nH]c2ccccc12)NC(=O)c1cccs1,0%
Cc1ccc(SCC(=O)O/N=C(\N)c2ccc([N+](=O)[O-])cc2)cc1,-7%
Cc1ccc(NC(=O)CN2C(=O)CSc3ccc(S(=O)(=O)N(C)C)cc32)cc1C,-1%
NC(=O)C1(Nc2ccccc2)CCCC1,0%
O=C(Nc1ccc(C(=O)N2CCCCC2)cc1)c1ccccc1Br,-3%
CC(=O)Nc1ccc2c(c1)OCCO2,11%
CC(C)(C)c1[nH]nc2c1C(c1ccsc1)C(C#N)=C(N)O2 (configuration not stated),14%
COc1cccc(NC(=S)N/N=C2\CC(C)(C)Oc3ccc(O)cc32)c1,-17%
COc1ccc(NC(=O)Cn2c(=O)c3cc(Cl)ccc3n3nncc23)cc1,-14%
COC(=O)CNC(c1ccccc1)c1cc(Br)ccc1NC(=O)CCN1CCOCC1 (configuration not stated),?
Cc1ccc2c(C)nc(N/C(N)=N/S(=O)(=O)c3ccccc3)nc2c1,-9%
CCn1c(CN2CCN(Cc3ccc(C)cc3)C(CCO)C2)nc2ccccc21 (configuration not stated),11%
COc1ccc(CCN2CC(C(=O)Nc3cccc(C(C)=O)c3)CC2=O)cc1OC (configuration not stated),5%
COc1cc2c(cc1OC)CN(C(=O)c1ccc(OC)c(S(=O)(=O)N3CCCC3)c1)CC2,-15%
CC(C)OC(=O)CSc1nnc(-c2cnccn2)n1Cc1ccco1,-3%
O=C1CCc2cc(S(=O)(=O)N3CCC(C(=O)NC4CCCC4)CC3)ccc2N1,-13%
O=C(O)CCC(=O)N1N=C(c2ccc(Br)cc2)CC1c1cccc(Br)c1 (configuration not stated),-22%
COc1cc(OC)cc(C(=O)Nc2ccc3nc4c(c(Nc5ccc(OC)c(OC)c5)c3c2)CCCC4)c1,-10%
CC(C)c1ccc2c(c1)NC(c1ccc(F)cc1)=NC(c1cccs1)=N2,13%
Cc1cccn2c(=O)c(C=NCc3ccccc3)c(NCCO)nc12,-6%
NC(=O)CSc1nc2ccc(NC(=O)COc3ccccc3Cl)cc2s1,3%
COC(=O)c1ccc(-n2c(C)ccc2-c2ccccc2)cc1,2%
O=C(CCNS(=O)(=O)c1ccccc1)NNC(=O)c1csc(N2CCOCC2)n1,5%
Cc1cc(=O)oc2c(C)cc(C(C)(C)C)cc12,0%
CC1=C(C(=O)Nc2cccnc2)C(c2ccc(F)cc2)n2nc(SCc3ccccc3F)nc2N1 (configuration not stated),-11%
COc1ccc(C(=O)OCC(=O)Nc2ccc(F)c(F)c2F)cc1OC,15%
CC(C)CC(NC(=O)OC(C)(C)C)c1cn([C@@H](CCCCNC(=O)OC(C)(C)C)C(=O)N2CCN(C(=O)OC(C)(C)C)CC2)nn1 (some centres not stated),-21%
COc1ccc(S(=O)(=O)N2CCOCC2)cc1C(=O)N(C)CCOc1ccc(Cl)cc1,-1%
CCc1cc(C(=O)OC)c(N2C(=O)C3C4C=CC(C4)C3C2=O)s1 (configuration not stated),-8%
COCCN1CC(CNC(=O)c2cc(COc3ccccc3SC)on2)CC1=O (configuration not stated),-3%
Cc1cc(Oc2ccc(N)cn2)cc(C)c1Cl,-7%
Cc1ccc(OCc2nc(-c3ccc(C(=O)N4CCN(c5ccccc5)CC4)cc3)oc2C)cc1,-15%
CCOc1ccc(C2c3c(oc4ccccc4c3=O)C(=O)N2c2ccc(C)cn2)cc1OC (configuration not stated),-7%
COc1ccccc1N(CC(=O)N1CCCCC1)S(=O)(=O)c1ccccc1,-2%
O=C(NCc1nc2ccccc2n1Cc1ccccc1Cl)c1ccccc1,2%
O=c1c2ccccc2cnn1Cc1n[nH]c(=S)n1C1CC2CCC1C2 (configuration not stated),-3%
CC1CCC2C(=O)N(c3ccc(NC4CCN(Cc5ccccc5)CC4)c([N+](=O)[O-])c3)C(=O)C2C1 (configuration not stated),9%
O=C1NCCN/C1=C\C(=O)c1ccc(Br)cc1,-9%
CCCOc1ccc(C(=O)Nc2ccc(NC(=O)c3cccc(Cl)c3)cc2)cc1,14%
O=C(O)C1CCN(c2c([N+](=O)[O-])cc(C(F)(F)F)cc2[N+](=O)[O-])CC1,-2%
N=c1c2c(ncn1Cc1ccco1)Oc1cc(O)ccc1C2c1ccccc1 (configuration not stated),-17%
CC1(NC(=O)CCc2ccccc2)CCN(CCCc2ccccc2)C1=O (configuration not stated),-13%
COc1ccc(/C(N)=N/OC(=O)C2CCCCC2)cc1,6%
O=C(COc1ccccc1)Nc1nnc(-c2ccc(F)cc2)o1,-13%
CCOc1ccc(CCN2C(=O)C(=O)N([C@@H](Cc3ccc(O)cc3)CN3CCC[C@@H]3CN3C(=O)C(=O)NC[C@@H]3Cc3ccccc3)C[C@@H]2Cc2ccccc2)cc1,-5%
COc1cccc(N2C(=O)Nc3ccc(Br)cc3C2(O)C(=O)NCCN(C)C)c1 (configuration not stated),2%
Clc1ccc(CNc2cnccn2)cc1Cl,7%
O=[N+]([O-])c1cccc(OCCCN2CCC(Cc3ccccc3)CC2)c1,-6%
CCOC(=O)c1ccccc1NC(=O)CN1C(=O)c2ccccc2S1(=O)=O,-1%
CC(C)NS(=O)(=O)c1ccc(OCC(=O)NCc2ccco2)cc1,-5%
COC(=O)c1cc2ccccn2c2c(C(=O)OC)c(C(=O)OC)cc1-2,-7%
CCOc1ccccc1NC(=O)CSc1nnc(CNC(=O)c2ccccc2F)o1,6%
CS(=O)(=O)NNC(=O)CN1C(=O)C2C3C=CC(C3)C2C1=O (configuration not stated),17%
COCCn1c(=NC(=O)c2cc(Cl)sc2Cl)sc2cc(S(N)(=O)=O)ccc21,0%
CC(=O)N1CCCC1c1nc2ccccc2n1Cc1ccccc1C (configuration not stated),16%
CC(C)(C)OC(=O)N1CCC(NC(=O)c2[nH]cnc2C(=O)Nc2ccccc2)CC1,10%

# Molecules from the list above that contain an aryl methoxy group (14):
SMILES,VDR inh
CCn1cc(C(=O)NCc2ccccc2OC)c(=O)c2cc(S(=O)(=O)N3CCCCC3)ccc21,-7%
COc1ccc2nc(SCC(=O)NCc3ccc(OC)c(OC)c3)[nH]c2c1,?
COc1ccccc1CNC(=O)COC(=O)[C@H](Cc1c[nH]c2ccccc12)NC(=O)c1cccs1,0%
COc1cccc(NC(=S)N/N=C2\CC(C)(C)Oc3ccc(O)cc32)c1,-17%
COc1ccc(NC(=O)Cn2c(=O)c3cc(Cl)ccc3n3nncc23)cc1,-14%
COc1ccc(CCN2CC(C(=O)Nc3cccc(C(C)=O)c3)CC2=O)cc1OC (configuration not stated),5%
COc1cc2c(cc1OC)CN(C(=O)c1ccc(OC)c(S(=O)(=O)N3CCCC3)c1)CC2,-15%
COc1cc(OC)cc(C(=O)Nc2ccc3nc4c(c(Nc5ccc(OC)c(OC)c5)c3c2)CCCC4)c1,-10%
COc1ccc(C(=O)OCC(=O)Nc2ccc(F)c(F)c2F)cc1OC,15%
COc1ccc(S(=O)(=O)N2CCOCC2)cc1C(=O)N(C)CCOc1ccc(Cl)cc1,-1%
CCOc1ccc(C2c3c(oc4ccccc4c3=O)C(=O)N2c2ccc(C)cn2)cc1OC (configuration not stated),-7%
COc1ccccc1N(CC(=O)N1CCCCC1)S(=O)(=O)c1ccccc1,-2%
COc1ccc(/C(N)=N/OC(=O)C2CCCCC2)cc1,6%
COc1cccc(N2C(=O)Nc3ccc(Br)cc3C2(O)C(=O)NCCN(C)C)c1 (configuration not stated),2%

# Structures above containing a cyano group:
SMILES,VDR inh
COC(=O)Cn1ccc(N(C)C)c(C#N)c1=O,8%
CC(C)(C)c1[nH]nc2c1C(c1ccsc1)C(C#N)=C(N)O2 (configuration not stated),14%

# (more compounds)
SMILES,VDR inh
CCSC1OC(C(COC(C)=O)OC(C)=O)C(OC(C)=O)C1NC(C)=S (configuration not stated),-11%
O=C(NNc1cc(Cl)cc(Cl)c1)c1c(F)cccc1Cl,-9%
Cc1cccc(-c2nc3ccccc3c(=O)n2NC(=O)Cc2ccc(Cl)cc2)c1,10%
COc1cccc(NC(=O)c2cc(-c3ccc(OC)cc3OC)nc3ccccc23)c1,-6%
NS(=O)(=O)c1cc(C(=O)OCC(=O)Nc2ccc3c(c2)OCO3)ccc1Cl,-20%
CCOc1ccc(S(=O)(=O)N2CCCC(C(=O)NCc3ccccc3)C2)cc1 (configuration not stated),14%
CSCCC(NC(=O)COc1ccccc1)C(=O)OCCOc1ccc(Br)cc1 (configuration not stated),-6%
COC(=O)c1sccc1NC(=O)Cn1nnc(-c2ccc(C)cc2)n1,0%
Nc1[nH]c(N=NC(=O)c2ccccc2)c2ccccc12,7%
CN(C)c1ccc(C(=O)NN2C(=O)c3ccccc3C2=O)cc1,1%
CC1Cc2ccccc2N1CC(=O)NC(c1ccccc1)c1ccccc1 (configuration not stated),7%
CCCC[N+](C)(C)CCC(=O)NC(C)(C)CS(=O)(=O)[O-],-2%
O=C(O)C1CC=CCC1C(=O)Nc1cc(Cl)ccc1Cl (configuration not stated),-14%
CCCC1=C(C(=O)OCC)C(c2ccc(N(C)C)cc2)n2ncnc2N1 (configuration not stated),9%
Cc1cc(Cl)ccc1NC(=O)CSc1nnc(Cc2cccs2)n1Cc1ccco1,-9%
O=C(N/N=C/C=C/c1ccccc1)C1CC1(c1ccccc1)c1ccccc1 (configuration not stated),-11%
CCCCOc1ccc(OCCNC(=O)C2CCCN2C(=O)Nc2ccccc2)cc1 (configuration not stated),18%
O=C(O)c1cc(S(=O)(=O)N(Cc2ccccc2)c2ccccc2Cl)ccc1Cl,-17%
CCOC(=O)c1ccc2nc(C)c(CCC(C)=O)c(Cl)c2c1,1%
CCN(CC)C1=NS(=O)(=O)c2cc([N+](=O)[O-])ccc21,18%
Cc1c(C(=O)N/N=C/c2cccs2)nnn1-c1nonc1N,-8%
CCOc1ccc(-c2c[n+]3c(n2-c2ccccc2)CCCCC3)cc1,6%
CN(C)c1cccc(C(=O)NCc2ccccc2)c1,-5%
COc1ccc(S(=O)(=O)N2CCOC2CNC(=O)C(=O)NCC(C)C)cc1 (configuration not stated),-14%
Cc1nn(-c2ccccc2)c(N)c1Sc1ccccc1[N+](=O)[O-],-22%
O=C1c2ccccc2C(Nc2ccc(F)c(Cl)c2)N1Cc1ccco1 (configuration not stated),89µM*
COC(=O)CCC(=O)c1oc2ccccc2c1N,-10%
COCCNC(=O)CCc1c(C)nc2c(-c3ccc(F)cc3)c(C)nn2c1C,-8%&-5%
COc1cc2nc(SCc3ccc(Cl)cc3)n3nc(CCn4nc(C)cc4C)nc3c2cc1OC,-9%
Cc1ccn2c(CN3CCOCC3)c(-c3ccccc3)nc2c1,-8%
CC1CCN(C(=O)CN2C(=O)NC(C)(c3ccc4ccccc4c3)C2=O)CC1 (configuration not stated),-14%
CCOC(=O)c1cc(-c2ccc(F)cc2)n(CCC(=O)NCCc2ccc(C)cc2)c1C,-2%
N#Cc1ccccc1OCC(=O)Nc1ccc2c(c1)OCCCO2,0%
CN(Cc1ccc(C(C)(C)C)cc1)C(=O)C1CSC2(C)CCC(=O)N12 (configuration not stated),-3%
Cc1nc2c(OCc3ccccc3)cccn2c1CC#N,-19%
Cc1ccccc1-c1nc(CS(=O)CC(=O)NCCN2CCOCC2)c(C)o1 (configuration not stated),-7%
CCC1=C(OC(=O)N(CC)CC)N2C(=O)OC(=NCC(=O)OC)[C@]2(C)[C@H]2C1=CC[C@H]1C(=O)N(C)C(=O)[C@H]12,8%
CCOc1ccc(N(CC(=O)NCCc2ccc(Cl)cc2)S(=O)(=O)c2c(C)[nH]c(=O)[nH]c2=O)cc1,1%
O=C(CN(C(=O)CSc1nnc(COc2ccccc2)o1)c1ccc(F)cc1)NC1CCCC1,2%
COc1ccc(CCN(Cc2ccccn2)C(=S)Nc2ccccc2C)cc1OC,0%

# Only part of the results is shown. The share of hits here may be higher or lower than overall.
